# eIF4H FP inh – inhibitors of RNA binding by human eIF4H; Q15056; eIF4H fluorescence polarization binding assay; inhibition, % at 35 µM; 290,000 compounds, 0.94% hits; AID 2012;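 active = 50% or more with normal probe brightness, or confirmed in later tests; about a fifth of its hits are not listed in these tables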;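 also: calls also rest on retests at 20 µM and on dose response follow-up; 0% = protein and probe with vehicle and 100% = probe without protein; strong numbers were not always called active; many hits fall short of the cut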
# PABP FP inh – PABP-poly(A) binding inhibition; P11940; PABP-poly(A) RNA binding, fluorescence polarization; 290,000 compounds, 1% hits; inhibition, % at 35 µM;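 active = 50% or more with normal probe brightness, or confirmed in later tests; about a fifth of its hits are not listed in these tables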;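 also: calls also rest on retests at 20 µM and on dose response follow-up; controls were probe without protein and protein plus probe with vehicle; some compounds called inactive have numbers as strong as hits; many hits fall short of the cut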
# Rce1 inh – inhibitors of yeast Ras-converting enzyme; calls only; Q03530; 290,000 compounds, 0.27% hits; yeast membranes, quenched prenylated peptide cleavage fluorescence; AID 2563;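 active = fall in fluorescence gain of 50% or more versus controls, with final raw signal at or below 3038400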;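 also: plate controls were neutral control wells for no effect and wells lacking membranes for full effect; tested at 10 µM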
# Target sequence (Q03530 whole entry, looked up): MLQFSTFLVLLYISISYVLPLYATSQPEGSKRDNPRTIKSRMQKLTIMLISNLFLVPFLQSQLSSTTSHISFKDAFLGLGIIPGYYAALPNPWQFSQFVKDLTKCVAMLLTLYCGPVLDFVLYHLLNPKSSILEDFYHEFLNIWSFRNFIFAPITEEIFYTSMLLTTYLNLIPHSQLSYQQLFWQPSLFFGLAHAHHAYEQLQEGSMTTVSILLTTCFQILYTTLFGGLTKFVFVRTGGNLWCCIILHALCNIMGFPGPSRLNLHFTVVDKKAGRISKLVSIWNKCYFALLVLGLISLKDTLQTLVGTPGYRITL
# Yeast UUG start – alters start codon recognition fidelity in yeast. S. cerevisiae UUG-firefly luciferase reporter, luminescence/redox ratio. activity score, % at 18.7 µM. 350,000 compounds, 0.13% hits;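 active = replicate mean at a twofold rise or more, about +100% in these data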;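 also: firefly luciferase made from a UUG start codon reports start codon fidelity; reporter light over untreated wells divided by growth signal over untreated wells; some hits fall short of that in this replicate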
# MT1-MMP act inh – inhibitors of human MT1-MMP activation; HT1080 RFP-PRO-GFP cells, GFP/RFP ratio fluorescence, overnight; percent of plate control window, DMSO zero; GFP/RFP ratio change, % at 20 µM; 360,000 compounds, 0.061% hits; AID 651647;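 active = GFP/RFP ratio change of at least 30% with cell ATP level not reduced by more than half and red fluorescence within 50% of control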; also: strong numbers were not always called active
#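 Test system: HT1080 cells expressing an RFP-PRO-GFP fluorescent reporter construct / Compound dosing: single-point 20 µM compound, 1% DMSO / Schedule: cells overnight before dosing, compound overnight, 37 °C, 5% CO2 / Evaluation: GFP/RFP fluorescence ratio / Control set: DMSO and RFP-L50D-GFP cell wells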
# CSC inhib – blocks cancer stem cells | cancer stem cell-like cells viability, luminescence | inhibition, % at 7.5 µM | 300,000 compounds, 1.1% hits | AID 2717;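 active = mean at 75% or more and at least half the replicates too; tested in HMLE shEcad cells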;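 also: 0% = median of negative and 100% = median of positive control wells; the first replicate is given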
# Env fusion inh – HIV envelope-mediated fusion inhibition; HeLa-JRFL Env/CEM21 cell fusion, luciferase; inhibition, % at 12.3 µM; 360,000 compounds, 1.1% hits; AID 651610;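 active = mean replicate inhibition score of at least 50 and every replicate individually at or above 50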;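 also: 0% = plate neutral controls and 100% = maraviroc near 300 nM; one replicate is shown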
# eIF4H FP inh retest – also measured in eIF4H FP inh; calls as there; inhibition, %; compound at 20 µM; confirmation average;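 mean of two retest wells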
# PABP FP inh retest – further read-out of PABP FP inh, marked with its call; inhibition, %; compound at 20 µM; confirmation repeats;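 mean of two retest wells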
# MT1-MMP act inh RFP – further read-out of MT1-MMP act inh, marked with its call; RFP signal change, %; measured here: RFP expression control read;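 0 = vehicle wells; hits needed this value within 50% of zero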
# The depositor's hits bear a star; i = inactive; / = no result given. Not all compounds are listed. The share of hits here may be higher or lower than overall.
SMILES,eIF4H FP inh,PABP FP inh,Rce1 inh,Yeast UUG start,MT1-MMP act inh,MT1-MMP act inh RFP,CSC inhib,Env fusion inh,others
Cc1c(NC(=O)COc2cccc3c2OC(C)(C)C3)c(=O)n(-c2ccccc2)n1C,3,-10,i,-5,3,1,2,-19,
COc1ccc(S(=O)(=O)N2CCC(NC(=O)Nc3ccc(C)cc3)CC2)cc1,0,-4,i,22,6,4,5,26,
Cc1cc(Cl)c2oc(C(=O)N(C)Cc3ccon3)c(C)c2c1,12,4,i,-14,2,-1,15,-88,
O=C(CCC1CCCN(C(=O)C2(c3ccccc3)CC2)C1)N1CCN(c2ccccn2)CC1 (stereo not given),0,-2,i,/,2,-4,-11,6,
COc1cc(C)c(Br)cc1S(=O)(=O)N1CCCC1,3,-5,i,-5,0,-2,-7,/,
O=C(c1cccc(F)c1)N1CCN(C(=O)c2cc(-c3ccc(Cl)cc3Cl)on2)CC1,-1,-8,i,-8,6,-5,-15,/,
Cc1nc2ccc3nc(NC(=O)c4ccc(S(=O)(=O)N5CCOCC5)cc4)sc3c2s1,-1,-6,/,-16,-1,-7,-12,3,
COc1cccc(-c2cc(C(=O)NCc3cccs3)no2)c1,-3,-2,i,/,-5,-3,-10,-81,
Cc1cc(Br)c(S(=O)(=O)n2nnc3ccccc32)cc1C,1,4,i,2,1,6,0,/,
COc1cc(C(=O)OCC(=O)Nc2cc(C)on2)c([N+](=O)[O-])cc1OC,-7,6,i,-10,-1,-1,-13,20,
CSc1ncccc1C(=O)Nc1ccc2c(c1)OCO2,/,/,/,-2,1,4,-19,/,
CN1CCN(c2ccc(S(=O)(=O)N3CCOCC3)cc2NC(=O)CC(C)(C)C)CC1,/,/,/,-15,-1,1,8,/,
COc1ccc(NC(=O)C(c2ccc(OC)cc2)N(C)C(=O)CC2NC(=O)NC2=O)cc1 (stereo not given),-3,-11,i,2,3,4,0,2,
CCCCCc1nnc(NC(=O)C2CCCO2)s1 (stereo not given),-6,3,i,1,0,7,-8,-12,
Nc1c(-c2ccccc2)cnn1C1CCS(=O)(=O)C1 (stereo not given),0,4,i,-23,-2,4,-2,/,
O=C(OCC(=O)N1CCc2ccccc21)c1ccncc1,/,/,/,-10,-3,2,-13,/,
O=C(Cn1ncc2c(=O)oc3ccccc3c21)NCC1COc2ccccc2O1 (stereo not given),-11,4,i,-2,-1,3,-30,-3,
COc1ccc(CSc2nc(C)cc(=O)[nH]2)cc1,-9,1,/,-6,4,4,-1,/,
COc1ccccc1C(=O)N/N=C(\C)CC(=O)Nc1ccccc1NC(C)=O,5,10,i,-17,-1,3,-14,15,
COC(=O)c1cc(C(=O)OC)cc(S(=O)(=O)Nc2ccc(Cl)c(N)c2)c1,-8,2,i,0,-1,0,-11,/,

# Reprinted from the part before: 3 compounds, then new ones.
SMILES,eIF4H FP inh,PABP FP inh,Rce1 inh,Yeast UUG start,MT1-MMP act inh,MT1-MMP act inh RFP,CSC inhib,Env fusion inh,others
COc1ccc(CSc2nc(C)cc(=O)[nH]2)cc1,-9,1,/,-6,4,4,-1,/,
COc1ccccc1C(=O)N/N=C(\C)CC(=O)Nc1ccccc1NC(C)=O,5,10,i,-17,-1,3,-14,15,
COC(=O)c1cc(C(=O)OC)cc(S(=O)(=O)Nc2ccc(Cl)c(N)c2)c1,-8,2,i,0,-1,0,-11,/,
Cn1c(=O)c2c(nc(SCCN3CCOCC3)n2C)n(C)c1=O,8,17,i,-19,-4,1,1,4,
CC(C)(C)c1ccc(S(=O)(=O)NC(=O)C2(C)CCN2C(=O)CC2CCCCC2)cc1 (stereo not given),/,/,/,7,-4,4,/,6,
Cc1cc(S(=O)(=O)N2CCN(c3ccc(F)cc3)CC2)ccc1-n1cnnn1,-13,-6,i,1,2,-4,/,0,
CN(C(=O)CSc1ncccc1C(=O)O)c1ccccc1,4,-7,i,-1,1,7,-14,-81,
O=C1c2ccccc2C(=O)N1CCc1nc(-c2ccc(Cl)cc2)no1,3,0,i,-19,1,3,3,-30,
COc1ccccc1Cn1c(=S)[nH]c2cc(C(=O)N3CC(C)CC(C)C3)ccc2c1=O (stereo not given),/,/,/,-20,-2,-5,/,19,
Cc1ccc([N+](=O)[O-])c(OCC(O)CNC(C)(C)C)c1 (stereo not given),10,-6,i,-12,5,5,-7,-8,
Cc1ccc(C(=O)C2=C(O)C(=O)N(Cc3cccnc3)C2c2ccc(Cl)cc2)o1 (stereo not given),-13,11,i,-6,3,0,-8,-6,
CCOC(=O)C1=C(C)N=C2c3ccccc3C(=O)C2C1c1ccc(Cl)cc1 (stereo not given),-2,-1,i,/,1,-11,25,84*,
CCn1c2ccccc2c2nnc(SCCN3CCCCC3)nc21,-6,-8,i,-18,-5,-1,10,-3,
COc1ccc(-c2noc(-c3ccc(Br)o3)n2)cc1,-6,0,i,/,-5,-4,11,-95,
Fc1cccc(Cl)c1CSc1ccc2nnc(-c3ccccn3)n2n1,-6,2,i,-21,-6,-6,-4,17,
COc1ccc(-c2nc(CN3CCN(C(=O)c4ccco4)CC3)c(C)o2)c(F)c1,2,-1,i,4,0,-3,-1,/,
COC(=O)c1ccccc1NC(=O)c1cccc(NC(=O)C(C)C)c1,2,4,i,/,-3,-1,0,7,
CCOC(CCNC(=O)c1cn(-c2cccc(C)n2)cn1)OCC,3,5,i,-13,-1,2,-13,/,
O=C(NCCSc1c[nH]c2ccccc12)c1ccc2c(c1)OCO2,-1,6,i,3,5,3,-1,-4,
O=C(Cn1nnc(-c2cccc(C(F)(F)F)c2)n1)NC(=O)NCc1ccco1,7,8,i,-18,1,3,-9,/,
CCOc1ccc(C(C)=O)cc1CN1c2ccc(S(N)(=O)=O)cc2CC1C (stereo not given),-8,-1,i,-3,-3,-4,6,-12,
O=C(O)c1cc(/C=C/c2ccc(N3CCOCC3)c([N+](=O)[O-])c2)nc2ccccc12,-5,14,i,-26,-4,-1,3,-6,
O=C(N/C(=C\c1ccc(-c2ccccc2)o1)C(=O)N1CCOCC1)c1ccccc1,-11,2,/,/,-12,-7,/,11,
Cc1ccc(CN(C)CC(=O)NC(C)c2ccccc2)cc1 (stereo not given),0,9,i,/,2,1,-1,7,
COc1ccc(C2/C(=C(\O)c3cccc(OC)c3)C(=O)C(=O)N2c2ccccn2)cc1 (stereo not given),6,13,i,-11,2,3,8,-56,
Cc1ccn2c(-c3n[nH]c(=S)n3Cc3ccccc3)c(C)nc2c1,1,-3,i,-16,/,/,1,-17,
CN(C)c1cc(-c2ccccc2)nc(N)n1,-2,-3,i,-9,3,4,12,-55,
O=c1c2ccccc2[nH]c(=S)n1CCN1CCCCC1,3,2,i,-13,-2,4,7,16,
O=C1CN(C(=O)C2CCC(=O)N(CCc3ccc(Cl)cc3)C2)CCN1 (stereo not given),-12,10,i,-9,-1,3,-10,5,
Cc1ccc(CNC(=O)[C@H](C)NC(=O)C2CCN(C(=O)[C@@H]3CCCN3C(=O)OC(C)(C)C)CC2)cc1,-8,-6,i,-14,0,10,-6,/,
CCc1ccc(C(C)NC(=O)c2ccncc2)cc1 (stereo not given),2,4,i,-21,-1,-10,2,5,
COc1cnc(SCc2ccc(Cl)cc2)nc1Cl,-15,-19,i,-12,-3,3,-6,-60,
CCOC(=O)c1c(C)[nH]c(C(=O)CSc2nnc(CC(C)c3ccccc3)o2)c1C (stereo not given),-3,0,i,-10,-27,-18,-17,-30,
COc1ccc(Br)cc1/C=N/NC(=O)c1cc(Br)ccc1O,-3,-11,i,/,/,/,/,/,
CCCc1nc(N)nc2c1C(=O)CC(C)(C)C2,-9,-8,/,-11,2,3,-9,/,
Cn1c(CN2CCCC2)nc2cc(NS(=O)(=O)c3ccc(Cl)cc3)ccc21,-15,-10,/,-6,-1,-2,-15,/,
CCOC(=O)C1(C)CCN1C(=O)COc1ccccc1 (stereo not given),/,/,/,-7,-1,4,/,12,
COc1ccc(-n2nc(C)cc2N)cc1,6,5,i,/,1,0,-5,18,
Cn1nccc1C(=O)N/N=C/c1cccnc1,-6,-11,i,-13,-1,-1,6,-89,
COC(=O)c1cc(=O)n(CCc2ccc(OC)c(OC)c2)c(=Nc2ccc(F)c(Cl)c2)s1,1,2,i,7,-15,-25,110*,6,
CON(C)C(=O)CCN(C(=O)OC(C)(C)C)c1ccccc1,/,/,/,-13,2,1,/,4,
CCCCN(C)C(=O)c1sc(=O)n(Cc2cc(Cl)ccc2OC)c1C,/,/,/,-15,4,-2,/,8,
O=C(COc1ccc([N+](=O)[O-])cc1)N/N=C/c1cc([N+](=O)[O-])ccc1N1CCOCC1,-14,-9,i,-6,5,-6,16,-1,
O=C(Nc1ccc2c(c1)OCO2)C1CC(c2ccc(F)cc2)=NO1 (stereo not given),0,1,i,-11,2,4,2,18,
CCC(=O)Nc1ccc(-c2nn3c(C)nnc3s2)cc1C,-15,-2,i,-2,10,1,2,-180,
CC1CCCCN1S(=O)(=O)c1ccc2c(c1)CCN2C(=O)CCC(=O)O (stereo not given),-6,-5,i,-3,2,-2,-6,-83,
Brc1cccc(-c2nnc3n2CCCCC3)c1,-8,-18,i,-10,5,4,-17,/,
Oc1ccc(N=Nc2ccccc2C(F)(F)F)c2cccnc12,15,9,i,-13,23,-22,100*,-10,
COc1ccc(-c2nc3c(s2)CCc2onc(-c4ccc(OC)cc4)c2-3)cc1,-4,-3,i,-17,-9,-4,69,-17,
CC(=O)Nc1cn(C(C)=O)c(C)n1,-4,6,i,/,/,/,2,/,
O=C(NCc1ccccc1)C(c1ccccc1)N(Cc1cccs1)C(=O)c1cnccn1 (stereo not given),4,-2,i,-12,-4,-4,-4,-89,
Cc1ccc(/C(O)=C2\C(=O)C(=O)N(CC(C)O)C2c2ccc(N(C)C)cc2)cc1 (stereo not given),-11,8,i,2,3,0,-3,/,
O=C(c1cccc(C(F)(F)F)c1)N1CCC(=O)N(C(CO)Cc2ccccc2)CC1 (stereo not given),/,/,i,11,1,1,3,14,
CCC(=O)N1CCN(c2ccc(NC(=O)c3ccco3)cc2Cl)CC1,1,6,i,-11,1,2,/,-19,
CN(C)[C@@H]1C(=O)C(C(=O)NCN2CCCC2)=C(O)[C@@]2(O)C(=O)C3=C(O)c4c(O)cccc4[C@@](C)(O)C3CC12 (stereo not given in full),96,11,i,/,/,/,/,/,eIF4H FP inh retest=-3;PABP FP inh retest=0
O=C(CSc1nnc(CNC(=O)c2c(F)cccc2F)o1)c1ccccc1,-12,7,i,0,3,0,10,4,
CCOc1cccc(CNn2cnnc2)c1OCc1ccccc1,-1,-2,i,-26,1,2,1,-39,
CCn1c(/C=C/c2cc[n+](C)cc2)nc2ccccc21,46,100*,i,-26,-12,1,-10,-2,eIF4H FP inh retest=17;PABP FP inh retest=103*
Cc1cccc(CSc2ccc(-c3ccco3)nn2)c1,52*,59*,i,-11,5,1,-2,-23,
CC(=O)c1cccc(OCc2cc(C(=O)N3CCC(N4CCCCC4)CC3)no2)c1,/,/,i,-18,-2,-2,-16,1,
CC(=O)Nc1ccc(NC(=O)C23CC4CC(C2)CC(n2cnc(Br)n2)(C4)C3)cc1,2,-8,/,/,2,5,-12,12,
CN(/N=C/c1ccccc1Cl)c1ncc(Cl)cc1C(F)(F)F,-8,11,i,-1,1,1,23,8,
CC(=C/C(=O)O)/C(=C/c1ccccc1)C(=O)O,-14,-29,i,/,5,5,-13,-4,
COc1cc(CC(=O)OCC(=O)Nc2ccc3c(c2)OCO3)cc(OC)c1OC,2,32,i,3,-3,-4,-19,5,
